Screening results as filed in PubChem.
VACV mCherry inh = inhibitors of vaccinia virus infection (mCherry reporter signal); Vaccinia virus mCherry reporter infection, fluorescence; about a quarter of the inactives have no number; Potency, µM (top dose mostly 36.5 µM), for the others: top-dose activity change, negative = inhibition, actives largely listed as inhibitors; actives 0.63% (n = 310,000); AID 720579; active = well fitted inhibition curve with a large enough effect; inconclusive = small, poorly fitted or top-dose-only effect; inactive = no such curve, though single readings can be large or run the other way; tested in A549 cells; further: nearly all actives have a fitted effect of over 35% in size; inactives centre near -10
VACV Venus inh = inhibitors of vaccinia virus (Venus reporter). Vaccinia virus Venus reporter expression, fluorescence. Potency, µM (top dose mostly 36.5 µM), inactives show at the highest dose activity change, negative = inhibition, hits mostly inhibitors. actives 0.46% (n = 330,000). AID 720580; active means well fitted inhibition curve with a large enough effect; inconclusive means small, poorly fitted or top-dose-only effect; inactive means no such curve, though single readings can be large or run the other way; tested in A549 cells; further: nearly all actives have a fitted effect of over 30% in size; inactives centre near -10
An asterisk follows results filed as active; i = inactive; ? = inconclusive; . = not tested or not shown; & = joins results of further samples; [ ] = dose if it differs, or a comment. On the % scale 0 is the no-effect control and ±100 the full control effect; potency means the concentration at half of the fitted maximal effect.

SMILES	VACV mCherry inh	VACV Venus inh
Cc1cc(=O)n2[nH]c(CCC(=O)O)nc2n1	-8.2%	-4.0%
CC1CCc2cc(F)ccc2N1C(=O)CSc1nnc2c(n1)[nH]c1ccc(F)cc12 (configuration not stated)	-28.6%	-14.8%
Cc1cc(C)cc(NC(=O)C2CCCN2S(=O)(=O)c2ccc3c(c2)n(C)c(=O)c(=O)n3C)c1 (configuration not stated)	3.8%	-6.9%
COc1cc(OC)c(C2C3=C(CCCC3=O)Nc3nc4ccccc4n32)cc1OC (configuration not stated)	.	-9.6%
CCN1CCN(C(c2ccc(SC)cc2)c2c(O)cc(C)n(Cc3ccco3)c2=O)CC1 (configuration not stated)	-12.5%	-7.4%
Clc1ccc(CN2CCCCCC2)cc1	-2.3%	-22.4%
CCOc1ccc(/C=C(/NC(=O)c2ccc(Cl)cc2)C(=O)O)cc1OCC	i	-12.1%
O=C(NCc1cccc(F)c1)C1CCCN(C(=O)N2CCOc3ccccc32)C1 (configuration not stated)	-1.9%	-3.4%
Cc1ccccc1NC(NC(=O)c1cccnc1)C(Cl)(Cl)Cl (configuration not stated)	i	-7.7%
CC(=O)NC(c1ccc(F)c(F)c1)c1nc(-c2cnn(C)c2)cs1 (configuration not stated)	4.1%	-9.1%
COc1ccc(Cl)cc1NC(=O)Nc1ccc(C(=O)N2CCCC2)cc1	?	?
COc1cccc(-c2cc(C(F)(F)F)n3ncc(C(=O)O)c3n2)c1	.	-3.5%
O=C(COc1ccccc1F)Nc1ccc(N2CCOCC2)cc1N1CCOCC1	-15.5%	-6.2%
Cc1ccc(C(=O)n2cnnc2N)cc1	-14.8%	-0.7%
O=[N+]([O-])c1cccc(N2Cc3ccccc3C2)c1	i	-13.7%
CCOC(=O)C1(Cc2cccc(F)c2)CCN(Cc2cnn(CC)c2C)CC1	-2.7%	-15.0%
COc1ccccc1NC(=O)COc1ccc(/C=N/NC(=O)CSCc2ccc(Cl)cc2)cc1	i	-4.1%
O=C([O-])c1ccc(-[n+]2c(-c3ccccc3)cc(-c3ccccc3)cc2-c2ccccc2)cc1	i	-1.4%
Cc1ccccc1NP(=O)(Oc1ccccc1F)Oc1ccccc1F	-11.3%	-6.2%
Cc1cccc(C)c1NC(=O)CN(C)C(=O)c1ccccc1Cc1ccccc1	-5.1%	-25.0%
COc1ccc(Cl)cc1NC(=O)NCc1ccccn1	-13.3%	-11.7%
Cc1cccc(C(=O)N(Cc2nc3ccccc3c(=O)[nH]2)C2CCCCC2)c1	-4.1%	-11.9%
CC1(C(=O)NCc2ccccc2)CSCC(=O)N1Cc1ccco1 (configuration not stated)	-13.8%	-1.2%
N#Cc1cc2ccccc2nc1SCC(=O)Nc1ccc(S(=O)(=O)N2CCCC2)cc1	-26.1%	-10.1%
CCOc1ccc(-c2nnc(SCC(=O)NCc3ccccc3)nc2-c2ccc(OCC)c(OC)c2)cc1OC	-18.0%	-22.1%
CCc1cc(C)cc(OCCNC(=O)c2ncn[nH]2)c1	i	-13.8%
Cc1ccc(F)cc1NC(=O)CCC(=O)c1cccs1	-14.4%	-13.7%
COc1cc(NC(=O)Cn2cnc3c(nc4n3CCCCC4)c2=O)cc(OC)c1OC	-10.8%	-3.5%
O=C(/C=C/c1ccco1)N1CCN(c2ccc(F)cc2)CC1	-10.2%	-20.4%
CCc1ccc(C(=O)c2cn(CC(=O)NCCc3ccccc3)c3nc(C)ccc3c2=O)cc1	-7.4%	-12.3%
CCOc1ccc(CCNC(=O)c2csc3c2CCCCC3)cc1	-15.7%	-11.6%
CCc1cccc(NC(=O)c2ccc3c(=O)n4c(nc3c2)CCCCC4)c1	-23.8%	-16.4%
COc1ccc(/C(O)=C2/C(=O)C(=O)N(CCCN(C)C)C2c2ccccc2)cc1OC (configuration not stated)	-9.3%	-0.2%
CCCc1nc2cc(C)c(Br)c(C)n2c1Cc1ccccc1OC	0.7%	-2.1%
c1ccc(-c2nnc(N3CCOCC3)c3ccccc23)cc1	i	-12.0%
CCCOCc1cc(CN2CCN(c3ccccc3OC)CC2)c(O)c2ncccc12	?	?
O=C(COc1ccccc1C(=O)Nc1ccccc1)Nc1cccc(F)c1	-27.2%	-20.5%
Cc1ccc(CCNC(=O)C2CCC(=O)N2Cc2cccnc2)cc1 (configuration not stated)	.	-3.6%
O=C1Nc2ccccc2Oc2cc(Oc3cccc(Cl)c3)ccc21	-4.5%	-6.3%
CCc1c(C)nc2ncnn2c1N1CCCC(C(=O)Nc2ccc(NC(C)=O)cc2)C1 (configuration not stated)	-15.0%	-14.3%
COc1ccccc1/C=C(/C(=O)OCC(=O)Nc1ccccc1C(C)C)c1ccccc1	-12.6%	-19.1%
CCn1cc(/C=C(\NC(=O)c2cc(OC)c(OC)c(OC)c2)C(=O)N2CCOCC2)c2ccccc21	?	-16.6%
Cc1c(NC(=O)Nc2ccccc2)cccc1[N+](=O)[O-]	-23.2%	-21.2%
O=C(CSCc1c(F)cccc1Cl)NCCSCc1ccco1	i	-1.7%
COc1cc(SC)ccc1C(=O)NCCc1ccccc1	12.5%	-15.6%
CC12CCC(=O)N1C(C(=O)N1CCN(S(=O)(=O)c3cccc(Cl)c3)CC1)CS2 (configuration not stated)	-6.1%	-4.0%
CC(C)COC(=O)Nc1nnc(SCCOc2ccccc2)s1	-26.2%	-9.2%
CCN(CC)S(=O)(=O)c1cccc(NN=c2c(=O)c3ccccc3c2=O)c1	?	-20.4%
Cc1onc(-c2ccccc2)c1C(=O)n1cccn1	-1.1%	-15.0%
CCCCCC(=O)N1C[C@@H](O)[C@H](n2cc(-c3ccc(F)cc3)nn2)C[C@@H]1c1ccc(Cl)cc1	-4.0%	?
New compounds follow:
SMILES	VACV mCherry inh	VACV Venus inh
CCC(CC)C(=O)NCCN1CCN(C(=O)C(CC)CC)CC1	-11.2%	-6.6%
Cc1cc(-c2ccc(S(=O)(=O)NCc3ccc(Cl)cc3)cc2)on1	-23.9%	0.5%
COc1ccc(-c2csc(C(O)c3cccc(Cl)c3)n2)cn1 (configuration not stated)	-11.1%	-10.5%
CCN(CC)CCCNC(=O)c1c2c(nc3ccccc13)C(=O)N(C1CCCCC1)C2	i	-19.8%
Cc1ccc(OCC(=O)Nc2ccc([N+](=O)[O-])cc2)cc1	-14.0%	-2.8%
CCC1CCCCN1CCCNC(=O)CSc1nc2nc(C)c(Cc3ccccc3)c(C)n2n1 (configuration not stated)	-15.2%	-14.0%
CCCCCOc1ccc(NC(=O)C(=O)NCC2CCCN2CC)cc1 (configuration not stated)	-9.8%	-0.6%
CCCc1c(C(=O)N/N=C/c2c[nH]c3ccccc23)nnn1-c1nonc1N	i	-8.3%
COc1ccc(C)cc1S(=O)(=O)n1cnc(C)c1	i	-23.1%
O=C(COCc1cc(-c2ccc3c(c2)OCO3)on1)N1CCN(c2cccc(Cl)c2)CC1	-24.6%&-14.7%	-4.0%&-14.4%
COc1ccc(NCc2cc3cc4c(cc3n(CC(=O)Nc3ccc(C)c(C)c3)c2=O)OCO4)cc1	-15.2%	-7.6%
CCCn1nc(C(=O)NNC(=O)c2cccc(C)c2)c2ccccc2c1=O	-19.8%	-9.7%
O=C(Cn1cnc2c(nnn2Cc2ccc(F)cc2)c1=O)N1CCCCC1	-8.5%	-4.0%
CCOc1ccc(NC(=O)N(Cc2ccc(CC)cc2)Cc2cn[nH]c2-c2ccc(OC)cc2)cc1	-22.3%	-28.6%
COc1ccc(C2=NOC(Cn3nc(C(=O)NCc4ccco4)cc3-c3ccccc3)C2)cc1 (configuration not stated)	i	-9.7%
CC1(C)OC(=O)C(=CSc2ccc(C(C)(C)C)cc2)C(=O)O1	i	-6.5%
Cc1ccc2oc(C(=O)Nc3c(C(=O)c4ccc(C)c(F)c4)oc4ccccc34)cc(=O)c2c1	-8.9%	2.9%
COc1cc2c(=O)c(C(=O)c3ccc(F)cc3)cn(Cc3cccc(F)c3)c2cc1OC	-14.4%	-15.9%
O=C(NCc1ccc2c(c1)OCO2)c1ccc2c(c1)N(Cc1ccc(F)cc1)C(=O)c1ccccc1S2=O (configuration not stated)	6.1%	5.2%
CSc1ccccc1NC(=O)CN1CCCCC1C (configuration not stated)	6.2%	-5.2%
COc1ccc(C(=O)n2nc(-c3ccco3)nc2N)cc1OC	-1.3%	1.1%
Cc1nc2cc(NC(=O)C3COc4ccccc4O3)ccc2s1 (configuration not stated)	i	-10.6%
CN(C(=O)C1CC1)C1CCS(=O)(=O)C1 (configuration not stated)	-4.4%	-8.6%
CCOC(=O)c1sc(NC(=O)c2nc3nc(C)cc(C(F)F)n3n2)c(C(=O)OC)c1C	7.3%	1.3%
Cc1cc(/C=C2\NC(=S)NC2=O)c(C)n1-c1cccnc1	?	?
O=C(c1ccco1)N1CCN(C(=O)C2CCCN(S(=O)(=O)Cc3ccccc3)C2)CC1 (configuration not stated)	-19.8%	-0.8%
CCOC1=C2CN(S(=O)(=O)c3ccc(C)cc3)[C@H](c3cccc4ccccc34)C[C@H]2[C@H]2C(=O)N(c3ccccc3)C(=O)[C@H]2C1	46.1%[activator]	-4.7%
COC(=O)C(CCCCNC(=O)OCc1ccccc1)NC(=O)CN (configuration not stated)	.	-10.0%
CC(=O)Nc1ccc(S(=O)(=O)N2CCN(S(=O)(=O)N3CCCCCC3)CC2)cc1	.	-13.3%
COc1ccc(NC(=O)c2ccc3c(=O)n(Cc4ccco4)c(=S)[nH]c3c2)c(OC)c1	-12.7%	1.7%
CCOc1ccc(-n2c(C)cc(/C=N\NC(=O)CC(=O)NC3CCCCC3)c2C)cc1	-17.4%	-15.0%
Cc1cccn2c(=O)c(/C=C(\C#N)c3nc4ccccc4n3C)c(Oc3ccc(Cl)cc3)nc12	-1.1%	4.6%
CC(C)SCC(=O)Nc1ncc2c(n1)-c1ccccc1CC2	-28.4%	-10.8%
CCCC(=O)N(Cc1cc2cc(C)ccc2[nH]c1=O)c1ccccc1OC	.	-22.1%
CCOC(=O)c1c(NC(=O)c2cc(-c3ccc(Cl)s3)nc3ccccc23)sc(C(N)=O)c1C	i	1.1%
C(=N\Nc1nn[nH]n1)/c1ccccc1	i	-7.9%
CCOc1ccc(/C=N/Nc2cc(C)nc(N3CCOCC3)n2)cc1	?	9.3%
COc1ccc(/C(O)=C2/C(=O)C(=O)N(c3ncccn3)C2c2ccc(F)cc2)cc1 (configuration not stated)	-6.0%	4.1%
Cc1cc2nc(-c3ccc(NC(=O)c4ccc(OCC(C)C)cc4)cc3)oc2cc1C	-18.2%	-11.6%
CC(C)(C)OC(=O)N1CCC(c2c(C(=O)NCCc3ccsc3)cnn2-c2ccccc2Cl)CC1	-6.8%	-11.3%
COc1ccc(S(=O)(=O)N2CCCCC2)cc1NC(=O)COC(=O)c1ccco1	i	1.4%
CCOC(=O)c1cnc(Nc2nc3ccccc3o2)nc1CSC(=S)N(CC)CC	?	?
Cc1[nH][nH]c(=O)c1C(c1c(C)[nH][nH]c1=O)c1cn(C)c2ccccc12	-16.1%	-4.6%
CSc1ncc(C(=O)Nc2ccccc2C)c(C)n1	i	-1.1%
CCOc1ccc(NC(=S)N2C3CCCC2CC(NC(=O)C2CC2)C3)cc1 (configuration not stated)	-11.7%	-2.1%
CCOCCCNC(=O)c1c(NC(=O)c2nc(SC)ncc2Cl)sc2c1CCCC2	?	?
CCOc1ccc(CNC(=O)Cn2c(=O)c3cccn3c3cccnc32)cc1	1.9%	0.9%
NC1=NC[C@@H](Cc2ccc(O)cc2)N1CC1CCCCC1	-11.2%	-5.5%
CCc1ccc(NC(=O)CN2C(=O)C(c3ccccc3)=NC23CCCCCC3)cc1	i	-23.7%
Cc1ccc(OC(=O)N(C)C[C@H]2OCc3cn(nn3)CCCC(=O)N([C@H](C)CO)C[C@@H]2C)cc1	-6.6%	-12.3%
CCOc1ccccc1C(=O)NC(C(=O)Nc1cccc(S(N)(=O)=O)c1)C(C)C (configuration not stated)	-2.9%	-12.7%
CC1CCN(C(=O)c2[nH]cnc2C(=O)NCCCCCNC(=O)OC(C)(C)C)CC1	-27.2%	-29.8%

Grouped by structure, those above with an NH in an aromatic ring
SMILES	VACV mCherry inh	VACV Venus inh
Cc1cc(=O)n2[nH]c(CCC(=O)O)nc2n1	-8.2%	-4.0%
CC1CCc2cc(F)ccc2N1C(=O)CSc1nnc2c(n1)[nH]c1ccc(F)cc12 (configuration not stated)	-28.6%	-14.8%
Cc1cccc(C(=O)N(Cc2nc3ccccc3c(=O)[nH]2)C2CCCCC2)c1	-4.1%	-11.9%
CCc1cc(C)cc(OCCNC(=O)c2ncn[nH]2)c1	i	-13.8%
CCCc1c(C(=O)N/N=C/c2c[nH]c3ccccc23)nnn1-c1nonc1N	i	-8.3%
CCOc1ccc(NC(=O)N(Cc2ccc(CC)cc2)Cc2cn[nH]c2-c2ccc(OC)cc2)cc1	-22.3%	-28.6%
COc1ccc(NC(=O)c2ccc3c(=O)n(Cc4ccco4)c(=S)[nH]c3c2)c(OC)c1	-12.7%	1.7%
CCCC(=O)N(Cc1cc2cc(C)ccc2[nH]c1=O)c1ccccc1OC	.	-22.1%
C(=N\Nc1nn[nH]n1)/c1ccccc1	i	-7.9%
Cc1[nH][nH]c(=O)c1C(c1c(C)[nH][nH]c1=O)c1cn(C)c2ccccc12	-16.1%	-4.6%
CC1CCN(C(=O)c2[nH]cnc2C(=O)NCCCCCNC(=O)OC(C)(C)C)CC1	-27.2%	-29.8%
